LASV entry inh – inhibitors of Lassa virus binding or cell entry | Lassa virus pseudotype entry inhibition, cell reporter; control for the full effect not named in the record | Potency, µM (top dose mostly 37.9 µM), for inactives: top-dose activity change, negative = inhibition, hits mostly inhibitors | 300,000 compounds, 1.2% hits; active means well fitted inhibition curve with a large enough effect; inconclusive means small, poorly fitted or top-dose-only effect, or effect the other way; inactive means flat fitted curve, though single readings scatter; tested in HEK293 cells; note: % is set by controls: 0 for no effect and ±100 for the full control effect; nearly all actives have a fitted effect of over 50% in size; luciferase read-out
NS1 inh – influenza NS1 inhibition; S. cerevisiae slowed by influenza A NS1, growth recovery by OD600; Potency, µM (titrated, usually from 46.1 µM), without a hit: at the top dose activity, positive = more growth; 270,000 compounds, 0.4% hits; note: actives are rising curves; nearly all actives have a fitted effect of over 50% in size
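Read-out: OD600 growth recovery of NS1-expressing budding yeast. Cells grown overnight at 30C in -URA glucose medium, washed, resuspended and diluted 1:100 in 2% galactose assay medium, pH 6.0. Same strain lacking NS1 served as positive control.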
StopGo reporter – lowers the luciferase signal of an FMDV 2A StopGo reporter. human cells with a luciferase reporter of 2A StopGo recoding; control for the full effect not named in the record. Potency, µM (top dose mostly 57.9 µM), for inactives: at the top dose signal change, negative = less light. 410,000 compounds, 1.2% hits; active = well fitted falling curve with a large enough effect; inconclusive = small, poorly fitted or top-dose-only effect; inactive = no such curve, though single readings can be large or run the other way; tested in HEK293T cells; note: % is set by controls: 0 for no effect and ±100 for the full control effect; nearly all actives have a fitted effect of over 45% in size; luciferase light after 4 h
SARS PLpro yeast – inhibitors of SARS-CoV papain-like protease in yeast. S. cerevisiae expressing SARS-CoV PLpro, growth rescue; control for the full effect not named in the record. Potency, µM (titrated, usually from 32.9 µM), without a hit: at the highest dose activity, positive = growth rescue. 330,000 compounds, 0.19% hits; note: 0% is about no effect; nearly all actives have a fitted effect of over 55% in size; growth read by luminescence after 48 h
Marburg entry inh – inhibitors of Marburg virus binding or cell entry; Marburg virus pseudotyped entry inhibition, cell reporter; control for the full effect not named in the record; about a third of the inactives were read at about 46 µM; Potency, µM (highest dose often 37.8 µM), for the others: top-dose activity change, negative = inhibition, hits mostly inhibitors; 300,000 compounds, 1.8% hits; active = well fitted inhibition curve with a large enough effect; inconclusive = small, poorly fitted or top-dose-only effect, or effect the other way; inactive = flat fitted curve, though single readings scatter; tested in HEK293 cells; about a fifth of its hits are not listed in these tables; note: % is set by controls: 0 for no effect and ±100 for the full control effect; luciferase read-out
Cruzain inh noDet – blocks cruzain activity in detergent-free assay; purified cruzain, Z-FR-AMC fluorescence, no detergent; 200,000 compounds, 2.3% hits; Potency, µM, for the others: max response, negative = inhibition, hits mostly inhibitors; P25779; active = well fitted curve in the direction sought with a large enough effect; inconclusive = small, poorly fitted or top-dose-only effect, or another doubt; inactive = no such curve, though single readings can be large; an effect the other way counts as inactive or inconclusive;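 note: plate controls were enzyme without inhibitor for no effect and buffer without enzyme for full effect; nearly all actives have a fitted effect of over 40% in size; top concentration of the series not given in the record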
Target sequence (P25779 123-467 limits assumed): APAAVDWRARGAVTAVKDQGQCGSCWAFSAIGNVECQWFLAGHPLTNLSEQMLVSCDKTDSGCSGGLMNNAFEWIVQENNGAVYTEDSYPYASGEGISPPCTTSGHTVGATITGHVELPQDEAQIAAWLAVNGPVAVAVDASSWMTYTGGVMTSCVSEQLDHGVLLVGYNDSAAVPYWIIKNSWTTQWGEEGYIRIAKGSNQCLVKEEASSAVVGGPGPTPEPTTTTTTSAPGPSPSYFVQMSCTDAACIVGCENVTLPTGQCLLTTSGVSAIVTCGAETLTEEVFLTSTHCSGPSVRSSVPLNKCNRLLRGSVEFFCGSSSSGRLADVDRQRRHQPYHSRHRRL
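Detergent-free condition (0.00005% Triton X-100) in acetate buffer pH 5.5 with DTT. 1.5 nM enzyme and compound were pre-mixed 15 min, then 2 uM Z-FR-AMC substrate added; reaction progress from fluorescence change between first and third reads (60 s).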
RE007 growth inh – less growth of the S. pombe RE007 Vpr strain | S. pombe RE007 Vpr strain, BacTiter-Glo ATP luminescence, 24 h; control for the full effect not named in the record | Potency, µM (titrated, usually from 92.2 µM), inactives show at the highest dose activity change, negative = less growth | 360,000 compounds, 0.21% hits; active = well fitted falling curve with a large enough effect; inconclusive = small, poorly fitted or top-dose-only effect; inactive = no such curve, though single readings can be large or run the other way;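 note: % is set by controls: 0 for no effect and ±100 for the full control effect; nearly all actives have a fitted effect of over 50% in size; the assay follows cell death caused by Vpr and the record does not say whether a fall means rescue or toxicity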
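Fission yeast strain RE007, carrying one chromosomally integrated HIV-1 vpr copy, was seeded at OD 0.01 in PMG+AL medium with 23 nL pinned compound. After 24 h at 30 °C and 99% humidity, viability was read by BacTiter-Glo luminescence.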
Cruzain inh Det – inhibitors of Trypanosoma cruzi cruzain with detergent; 200,000 compounds, 0.43% hits; AID 1478; purified cruzain, Z-FR-AMC fluorescence, 0.01% Triton; P25779; Potency, µM, inactives show max response, negative = inhibition, usual class: inhibitors; active = well fitted curve in the direction sought with a large enough effect; inconclusive = small, poorly fitted or top-dose-only effect, or another doubt; inactive = no such curve, though single readings can be large; an effect the other way counts as inactive or inconclusive;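 note: plate controls were neutral wells for no effect and buffer without enzyme for full effect; nearly all actives have a fitted effect of over 40% in size; top concentration of the series not given in the record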
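Cruzain (1.5 nM) preincubated 15 min at RT with compound in 100 mM sodium acetate pH 5.5, 5 mM DTT, 0.01% Triton X-100. Reaction started with 2 uM Z-FR-AMC; AMC fluorescence (ex 360/em 450 nm) change over 60 s gave rate.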
Starred values were filed as active, the others as inactive; ? = inconclusive; nt = no result given; [ ] = remark or other dose. Unless noted, calls come from the whole dose curve; as a rule, active means well fitted rising curve with a large enough effect; inconclusive means small, poorly fitted or top-dose-only effect; inactive means no such curve, though single readings can be large or run the other way. Potency is the fitted concentration of half-maximal effect.

SMILES	LASV entry inh	NS1 inh	StopGo reporter	SARS PLpro yeast	Marburg entry inh	Cruzain inh noDet	RE007 growth inh	Cruzain inh Det
COc1cccc(N2C(=O)CC(Sc3nc(C)cc(C)n3)C2=O)c1 (stereo not drawn)	0%	12%	-18%	-8%	18%	nt	-6%	nt
Cc1c(NC(=S)NC(=O)c2ccc(Cl)cc2)c(=O)n(-c2ccccc2)n1C	-10%	nt	-7%	nt	?	nt	2%	nt
CCOC(=O)c1c(NC(=O)c2ccc(C)cc2)sc2c1CCCCC2	0%[46.1 µM]	nt	-22%	nt	nt	-1%	nt	0.3%
O=C(Cn1nnc(-c2ccc(CN3CCOCC3)cc2)n1)Nc1nc(-c2ccccc2)cs1	-16%	-7%	-28%	1%	0%	-30%	-3%	-16%
O=C(COc1ccc(Cl)cc1)Nc1ccc(Cl)cc1C(=O)c1ccccc1	-2%[46.1 µM]	nt	13%	nt	nt	-5%	nt	1.9%
CC(=O)c1csc(COc2ccc(Cl)cc2)n1	nt	-7%	18%	-1%	nt	nt	-7%	nt
Fc1ccc(-c2csc(N3CCOCC3)n2)cc1	5%[46.1 µM]	3%	18%	-1%	?	nt	?	nt
Cc1cc(N/N=C/c2ccncc2)c([N+](=O)[O-])cc1[N+](=O)[O-]	7%[46.1 µM]	6%	13%	-1%	-8%[46.1 µM]	nt	-11%	nt
Cc1ccc(S(=O)(=O)NC2CC(C)(C)NC(C)(C)C2)cc1	1%	4%	3%	-2%	?	nt	-2%	nt
Cn1c(=O)c2c(SCC(=O)N3CCc4ccccc43)nc(-c3ccccc3Cl)nc2n(C)c1=O	-8%[46.1 µM]	nt	-18%	nt	nt	-2%	nt	4.5%
CCc1ccc(NC(=S)NCc2ccccc2)cc1	3%	nt	50%[activator]	3%	6%[46.1 µM]	nt	2%	nt
CC1CCN(C(=O)c2ccccc2NC(=O)Cc2ccccc2)CC1	?	1%	36%[activator]	10%	11%[46.1 µM]	nt	-5%	nt
Fc1ccc(-n2ncc3c(NCCCn4ccnc4)ncnc32)cc1	?	nt	25%	nt	nt	2%	nt	-0.5%
O=C1CC(NS(=O)(=O)c2cccs2)CN1c1cccc(F)c1 (stereo not drawn)	16%	nt	-16%	2%	16%[46.1 µM]	nt	2%	nt
CCn1c(NC(C)=O)c(-c2ccccc2Cl)c(=O)c2ccccc21	nt	-2%	16%	-2%	nt	nt	-2%	nt
Clc1ccccc1CN1CCNCC1	?	12%	0%	-1%	8%	nt	3%	nt
O=[N+]([O-])c1ccc(S(=O)(=O)Nc2nnc(C(F)(F)F)s2)cc1	nt	9%	12%	-1%	nt	nt	-12%	nt
C#CCOC(=O)CCC(=O)NCCc1ccccc1	30%	1%	-6%	-1%	-13%	-3%	-9%	1.8%
Cc1ccc(-n2c(=O)c3c(cnn3C)n(CC(=O)Nc3cccc(C)c3)c2=O)cc1	14%[46.1 µM]	nt	19%	nt	-14%[46.1 µM]	10%	nt	-2.2%
CCc1cccc(NC(=O)C(Cc2ccccc2)n2cccc2)c1 (stereo not drawn)	nt	nt	4%	nt	?	3%	nt	-7.4%
Cc1cccc(C)c1NC(=O)CSc1nc(COc2ccccc2)nc2ccccc12	2%	8%	-5%	-2%	-28%	0%	-13%	0.1%
CC(=O)C1=C(O)C(=O)N(CCNCCO)C1c1ccccc1 (stereo not drawn)	-3%	3%	12%	-10%	10%	-10%	32%	-3.3%
Cn1c(/C(C#N)=C(\O)CN2CCN(Cc3ccccc3)CC2)nc2ccccc21	?	-2%	?	0%	-7%	-14%	?	-6.6%
O=c1c2ccccc2ncn1CCOc1ccccc1[N+](=O)[O-]	nt	2%	57%[activator]	0%	nt	nt	4%	nt
ON1C(c2ccccc2)CC2(O)c3nonc3CCC12 (stereo not drawn)	10%	0%	14%	1%	7%	5%	-2%	-0.6%

By substructure, the entries above with a thiophene ring, fused or not
SMILES	LASV entry inh	NS1 inh	StopGo reporter	SARS PLpro yeast	Marburg entry inh	Cruzain inh noDet	RE007 growth inh	Cruzain inh Det
CCOC(=O)c1c(NC(=O)c2ccc(C)cc2)sc2c1CCCCC2	0%[46.1 µM]	nt	-22%	nt	nt	-1%	nt	0.3%
O=C1CC(NS(=O)(=O)c2cccs2)CN1c1cccc(F)c1 (stereo not drawn)	16%	nt	-16%	2%	16%[46.1 µM]	nt	2%	nt

Six of the compounds above, with two lines to a compound.
Screens in order: LASV entry inh	NS1 inh	StopGo reporter	SARS PLpro yeast	Marburg entry inh	Cruzain inh noDet	RE007 growth inh	Cruzain inh Det
> Cc1c(NC(=S)NC(=O)c2ccc(Cl)cc2)c(=O)n(-c2ccccc2)n1C
 : -10%	nt	-7%	nt	?	nt	2%	nt
> CCOC(=O)c1c(NC(=O)c2ccc(C)cc2)sc2c1CCCCC2
 : 0%[46.1 µM]	nt	-22%	nt	nt	-1%	nt	0.3%
> O=C(Cn1nnc(-c2ccc(CN3CCOCC3)cc2)n1)Nc1nc(-c2ccccc2)cs1
 : -16%	-7%	-28%	1%	0%	-30%	-3%	-16%
> O=C(COc1ccc(Cl)cc1)Nc1ccc(Cl)cc1C(=O)c1ccccc1
 : -2%[46.1 µM]	nt	13%	nt	nt	-5%	nt	1.9%
> CC(=O)c1csc(COc2ccc(Cl)cc2)n1
 : nt	-7%	18%	-1%	nt	nt	-7%	nt
> Fc1ccc(-c2csc(N3CCOCC3)n2)cc1
 : 5%[46.1 µM]	3%	18%	-1%	?	nt	?	nt

Carrying on:
SMILES	LASV entry inh	NS1 inh	StopGo reporter	SARS PLpro yeast	Marburg entry inh	Cruzain inh noDet	RE007 growth inh	Cruzain inh Det
CCc1ccc(OCCOCC(O)CNC(C)CC)cc1 (stereo not drawn)	1%	-6%	-11%	-13%	?	6%	3%	-0.2%
COc1ccc(Oc2c(Cl)cnn(-c3ccc(Cl)c(Cl)c3)c2=O)cc1	?	5%	28µM*	-3%	?	11%	1%	-3.5%
COc1ccccc1C(=O)N/C(=C/c1ccc(Br)cc1)C(=O)NCC(=O)O	17%	9%	nt	7%	10%	23%	9%	-1.9%
CC(C)C(NS(=O)(=O)c1cccc2cccnc12)C(=O)Nc1ccc(OC(F)(F)F)cc1 (stereo not drawn)	11%[46.1 µM]	nt	30%[activator]	nt	nt	10%	nt	-7.2%
Cn1ccnc1Sc1ccc(C(N)=O)cc1[N+](=O)[O-]	?	nt	2%	-3%	-32%[46.1 µM]	nt	-1%	nt
CC(=O)c1ccc(OC(=O)CCc2ccccc2)cc1	nt	-18%	-3%	-6%	nt	nt	7%	nt
COc1ccc(-c2noc(N3CCCC(C(=O)Nc4ccccc4F)C3)n2)cc1 (stereo not drawn)	nt	-8%	3%	-7%	nt	nt	-12%	nt
CCOC(=O)c1oc2c(c1C)-c1nn(Cc3ccc(Cl)cc3)cc1CC2	-19%[46.1 µM]	nt	-28%	nt	-21%[46.1 µM]	-4%	nt	-1.9%
NC(=O)c1ccc(SCC(=O)OCC(=O)N2CCCCC2)c([N+](=O)[O-])c1	-16%[46.1 µM]	nt	-2%	-6%	16%	nt	-1%	nt
Cc1cc(C(=O)NNC(=O)c2ccc(S(=O)(=O)N(C)C)cc2)c(C)o1	-4%	11%	?	2.5µM*	?	-8%	5%	0.4%
COc1ccccc1NC(=O)C1=C(C)Nc2nc(CCCO)nn2C1c1cccnc1 (stereo not drawn)	-2%	0%	-5%	-3%	?	-9%	1%	5.3%
CC(C)c1nnc(NC(=O)C2CCN(C(=O)Nc3ccc(Cl)cc3)CC2)s1	-29%	16%	-3%	0%	16%[46.1 µM]	nt	9%	nt
CSCc1ccc(C(=O)NC(C)c2cnn(-c3ccccn3)c2C)o1 (stereo not drawn)	-7%	-8%	20%	1%	22%	nt	-7%	nt
Cc1cccc(NC(=O)CCNC(=O)c2ccco2)c1C	3%[46.1 µM]	-4%	6%	-2%	2%[46.1 µM]	nt	-1%	nt
O=C(COC(=O)c1ccc2ncsc2c1)Nc1cc([N+](=O)[O-])ccc1Cl	?	nt	-12%	-1%	3%	nt	-6%	nt
CCN(CC)S(=O)(=O)c1ccc(Cl)c(NC(=O)CSc2cccc[n+]2[O-])c1	nt	-1%	-20%	-1%	nt	nt	30%	nt
CCCC1CC(CCc2ccccc2)OS(=O)(=O)N1 (stereo not drawn)	nt	14%	96%[activator]	-1%	nt	nt	41%	nt
Cc1cc(NC(=O)C(C)SCC(=O)N(Cc2ccccc2)c2ccccc2)no1 (stereo not drawn)	?	nt	-13%	-5%	3.5µM*	nt	-2%	nt
Cc1cc(C)n2nc(CCCO)nc2n1	nt	4%	-7%	-1%	nt	nt	3%	nt
CCO/C(C)=C1/SC(=S)NC1=O	-28%	6%	-20%	1%	?	nt	?	nt
COc1cccc(-c2cn3c(n2)sc2cc(C(=O)NCCc4ccc(OC)c(OC)c4)ccc23)c1	2%[46.1 µM]	nt	-3%	nt	nt	-6%	nt	-3.5%
Cc1ccc(Nc2c([N+](=O)[O-])c(=O)n(C)c3ccccc23)cc1	?	-5%	-14%	-2%	?	nt	-23%	nt
COc1ccc(NC(=O)CN(C)C(=O)c2ccc(N3CCCCC3)c([N+](=O)[O-])c2)cc1	-12%	nt	-24%	-3%	-30%	nt	?	nt
Cc1cc(C)c(-n2nnnc2SCC(=O)c2cc3ccccc3o2)c(C)c1	?	10%	-25%	-1%	-3%	nt	7%	nt
COc1cccc(NC(=O)COc2c(F)c(F)c(C(F)(F)F)c(F)c2F)c1	3%	4%	-11%	-7%	-34%	-7%	2%	-10%
COc1ccc(CNC(=O)CN(CC2CCCO2)C(=O)CNS(=O)(=O)c2ccc(F)cc2)cc1 (stereo not drawn)	0%	-8%	-2%	-34%	2%	12%	-9%	8.4%
NC(=O)c1c(NC(=O)c2cccnc2)sc2c1CCCC2	?	nt	8%	2%	28%[46.1 µM]	nt	-2%	nt

Source: PubChem (National Center for Advancing Translational Sciences (NCATS))
